Screens deposited in PubChem BioAssay by National Center for Advancing Translational Sciences (NCATS).
VDR inh: blocks the human vitamin D receptor; P11473; VDR-SRC2-3 peptide fluorescence polarization, 2 h; Potency, µM, for the others: max response, negative = inhibition, hits mostly inhibitors; 400,000 compounds, 0.93% hits; active means well fitted inhibition curve with a large enough effect; inconclusive means small, poorly fitted or top-dose-only effect, or another doubt; inactive means no such curve, though single readings can be large or run the other way; further: series mostly up to about 120 µM
Target sequence (P11473 whole entry, looked up): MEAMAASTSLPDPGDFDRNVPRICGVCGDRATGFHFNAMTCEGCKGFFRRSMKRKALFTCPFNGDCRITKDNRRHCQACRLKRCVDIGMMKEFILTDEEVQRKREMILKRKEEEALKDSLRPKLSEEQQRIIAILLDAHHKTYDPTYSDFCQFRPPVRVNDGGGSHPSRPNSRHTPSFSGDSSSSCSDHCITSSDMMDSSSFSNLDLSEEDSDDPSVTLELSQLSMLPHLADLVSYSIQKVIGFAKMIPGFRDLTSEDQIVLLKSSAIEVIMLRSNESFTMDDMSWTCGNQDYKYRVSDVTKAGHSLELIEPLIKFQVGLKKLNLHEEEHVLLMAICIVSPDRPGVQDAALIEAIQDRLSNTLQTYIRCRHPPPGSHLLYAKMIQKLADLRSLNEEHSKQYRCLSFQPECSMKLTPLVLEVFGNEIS
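Inhibition of the VDR/SRC2-3 peptide interaction is quantified by fluorescence polarization. Compounds (23 nl, pintool) incubate with the reagents for 2 hours at ambient room temperature.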
* hit, by the source's call; ? = inconclusive; & = joins results of further samples. On the % scale 0 is the no-effect control and ±100 the full control effect; potency means the concentration at half of the fitted maximal effect. Only part of the results is shown. The share of hits here may be higher or lower than overall.

VDR inh	compound
16%	COc1ccc(C2c3c(oc4ccc(C)cc4c3=O)C(=O)N2CCCN2CCOCC2)cc1OC (stereo not given)
13%	COC(=O)C1=C(C)N2C(=O)CSC2=NC1c1ccc2c(c1)OCO2 (stereo not given)
-12%	O=C(Nc1ccccc1NC(=O)c1c(F)cccc1F)c1c(F)cccc1F
6%	CCOc1ccc(C2/C(=C(/O)c3ccc4c(c3)CC(C)O4)C(=O)C(=O)N2CC2CCCO2)cc1 (stereo not given)
1%	CN1CCN(c2ccc(NC(=O)c3ccc(Cl)cc3Cl)cc2)CC1
0%	Cc1nc(NC(=O)CN2CCN(c3cccc(Cl)c3)CC2)sc1C(=O)N(C)C
-5%	Cc1cn(C2OC(COC(=O)c3ccccc3)C(O)C2Cl)c(=O)[nH]c1=O (stereo not given)
22%	Cc1sc2ncnc(SCC(=O)N3CCOCC3)c2c1C
14%	COc1ccc(Br)cc1C1NC(=O)NC(C)=C1C(=O)N(C)C (stereo not given)
8%	Cc1nnc(SCC(=O)Nc2cccc(C(F)(F)F)c2)[nH]c1=O
11%	COc1ccc(/C=N/Nc2cc(C)nc(-n3nc(C)cc3C)n2)cc1
-3%	Cc1cc(NC(=O)c2ccc(S(=O)(=O)N(C)CC3CCCO3)cc2)no1 (stereo not given)
1%	COC(=O)c1cc(-c2ccc(S(=O)(=O)N3CCCCC3)cc2)c(C(F)(F)F)s1
7%	CCNC(=O)C12CCC(C)(C(=O)C1Br)C2(C)C (stereo not given)
-5%	COc1ccnc(Oc2ccccc2)c1-c1ncn[nH]1
15%	COc1ccc(Cc2nnc(NC(=O)c3ccco3)s2)cc1OC
-13%	CCOc1ccccc1N(CC(=O)NC1CCCC1)S(=O)(=O)c1ccc(C)cc1
1%	CCOc1cc(-c2nnc(SCC(=O)NCc3ccccc3)nc2-c2ccc(OC)c(OCC)c2)ccc1OC
5%	CCCn1c(N)c(C(=O)CSc2ncn[nH]2)c(=O)n(C)c1=O
-10%	Cc1cnc(NC(=O)c2ccc(-c3ccc([N+](=O)[O-])cc3)o2)s1
19%	CCc1cccc(Nc2ncnc3onc(-c4ccc(F)cc4)c23)c1
-14%	NC(=O)Nc1ccc(Nc2ccccc2)cc1
-1%	O=C(NCC(c1ccc2c(c1)OCO2)N1CCN(c2ccccc2)CC1)C(=O)Nc1ccccc1F (stereo not given)
79µM*	O=C1C=CC(=O)N1c1ccc2ccccc2c1
-7%	CCC(C)NC(=O)Cn1c(=O)n(-c2ccc(C)c(C)c2)c(=O)c2c(C)c(C(=O)N(CC)CC)sc21 (stereo not given)
-3%	CCOc1ccc(NS(=O)(=O)c2ccc(N)cc2)cc1
8%	O=C(NCc1ccc(Cl)cc1)c1cccc2c1C(=O)N(CC1CCCO1)C2 (stereo not given)
7%	CC(C)=C1Cc2ccccc2C1=O
9%	COc1cc(NC(=O)c2ccc(NC(=O)N3CCSc4ncccc43)cc2)cc(OC)c1
-26%	Cc1cccc(NC(=O)CSc2nc3c(oc4ccccc43)c(=O)n2C(C)C)c1

As entered above:
`Cc1cccc(NC(=O)CSc2nc3c(oc4ccccc43)c(=O)n2C(C)C)c1` @ VDR inh: -26%
`CCC(C)NC(=O)Cn1c(=O)n(-c2ccc(C)c(C)c2)c(=O)c2c(C)c(C(=O)N(CC)CC)sc21` (stereo not given) @ VDR inh: -7%

Continued:
VDR inh	compound
10%	CCC1CCCCN1C(=O)c1cc(-c2ccc(Cl)c(Cl)c2)on1 (stereo not given)
-5%	CN(Cc1cccc(C(F)(F)F)c1)Cc1nc(-c2cnccn2)no1
?	COCCSc1ccccc1C(=O)Nc1cccnc1
4%	O=C(Nc1ccc(Cl)cc1)c1ccc2snnc2c1
11%	O=C(NCc1ccncc1)C(F)(F)C(F)(F)C(=O)NCc1ccncc1
-3%	CC(=O)Nc1ccc(NC(=O)CCN2C(=O)C3CC=CCC3C2=O)cc1 (stereo not given)
-13%	Cc1ccc(C2=NS(=O)(=O)N(C)C(C(=O)Nc3ccc(F)cc3F)=C2)cc1
?	COC(=O)c1sc(N)c(C(=O)OC)c1Cn1ncc(Cl)c(Cl)c1=O
-1%	CCN(CC(=O)Nc1ccc(NC(C)=O)cc1)C(=O)c1cn(-c2ccccc2)nc1-c1cccs1
-21%	C=CCNc1nc2ccccc2nc1NS(=O)(=O)c1ccc(F)cc1
6%	O=C(/C=C/c1ccccc1Cl)N1CCC(c2nc3ccccc3o2)CC1
-4%	CCc1nnc(NC(=O)C2CCCN(c3nc4ccccc4s3)C2)s1 (stereo not given)
-6%	CC(C)c1ccc(OCC(O)CN2CCCC2)cc1 (stereo not given)
-1%	Cc1ccn2c(C(=O)CSc3ccccc3)c(C)nc2c1
4%	CCC(=O)Nc1cccc(NC(=O)c2ccccc2Br)c1

An excerpt of these results, field by field.
Compound: CN1CCN(c2ccc(NC(=O)c3ccc(Cl)cc3Cl)cc2)CC1
  VDR inh: 1%

Compound: COC(=O)c1sc(N)c(C(=O)OC)c1Cn1ncc(Cl)c(Cl)c1=O
  VDR inh: ?

Other compounds.
VDR inh	compound
-2%	COc1cc(/C=N/NC(=O)c2c(-c3c(Cl)cccc3Cl)noc2C)ccc1OCC(N)=O
-19%	CC(C)OCCCNC(=O)C1CCN(S(=O)(=O)c2ccc3nc4c(c(C(=O)O)c3c2)CCCCC4)CC1
?	CN1CCN(C(=S)c2ccc(Br)cc2)CC1
2%	Cc1ccc(NC(=O)CN(C)Cc2cc(=O)n3ccsc3n2)cc1
9%	O=C(c1cccc(F)c1)N1CCCC(C(=O)N2CCCC2)C1 (stereo not given)
6%	Cc1cc(=O)[nH]c(SCC(=O)NCCC2=CCCCC2)n1
5%	Cc1cc(=O)[nH]c(SCC(=O)N2CC3(C)CC2CC(C)(C)C3)n1 (stereo not given)
11%	O=C(CCS(=O)(=O)c1ccc(Cl)cc1)Nc1nc(-c2ccncc2)cs1
-12%	COc1cccc(/C=N/NC(=S)Nc2cccnc2)c1
56µM*	COc1cc(/C=C2/C(=O)NN(c3ccc(Cl)c(Cl)c3)C2=O)cc([N+](=O)[O-])c1O
-8%	COc1ccc(C(=O)Nn2c(SCC(=O)NCc3ccco3)nc3ccccc3c2=O)cc1
-12%	O=C(N/N=C\c1ccc([N+](=O)[O-])s1)c1cncc(Br)c1
3%	CCc1ccc(NC(=O)C(C)Sc2ccc(S(=O)(=O)N3CCN(C)CC3)cn2)cc1 (stereo not given)
24%	O=C(CCCN1C(=O)/C(=C\c2cccs2)SC1=S)Nc1ccc(C(=O)O)cc1
-2%	CS(=O)(=O)c1nc([N+](=O)[O-])nn1CCCc1ccccc1
-12%	Cc1ccc(C)c(NS(=O)(=O)c2ccc3oc(=O)ccc3c2)c1
-6%	N#CCSc1nc(-c2ccccc2)cs1
27%	Cc1c(NC(=O)C(C)Oc2cccc(F)c2)c(=O)n(-c2ccccc2)n1C (stereo not given)
79µM*	COC(=O)N1C(=O)[C@](CC(C)C)(c2ccccc2)N1C(=O)OC
-14%	O=S(=O)(NCCCCNS(=O)(=O)c1c(F)cccc1F)c1ccc2c(c1)OCCO2
-11%	COc1ccc(OC)c2c(N3CCN(C)CC3)cc(C(F)(F)F)nc12
3%	Cc1ccc(N2C(=O)N(CC(=O)Nc3ccccc3C)C(=O)C2C)cc1 (stereo not given)
-11%&-8%	Cc1c(NC(=O)c2cc(-c3ccc(Cl)c(Cl)c3)on2)c(=O)n(-c2ccccc2)n1C
6%	Cc1nn(CC(=O)NCc2ccccc2Cl)c(C)c1[N+](=O)[O-]
18%	COc1ccccc1N1CCN(C(=O)COc2ccc(S(=O)(=O)NC(C)C)cc2)CC1
-9%	O=C(CCS(=O)(=O)c1ccc(Br)cc1)Nc1ccc(Cl)c(C(F)(F)F)c1
-12%	Cc1cccc(C(=O)Nc2scc(CC(C)C)c2C(=O)O)c1
-20%	CCOc1ccc(C2C(C(=O)NC)=C(C)Nc3nc4ccccc4n32)cc1OC (stereo not given)
-8%	Cc1noc(C)c1C(=O)NCCCN1CCCC1=O
2%	CCN(Cc1cc2cc(OC)ccc2[nH]c1=O)C(=O)c1ccncc1

Three consecutive records already listed:
VDR inh	compound
-12%	Cc1ccc(C)c(NS(=O)(=O)c2ccc3oc(=O)ccc3c2)c1
-6%	N#CCSc1nc(-c2ccccc2)cs1
27%	Cc1c(NC(=O)C(C)Oc2cccc(F)c2)c(=O)n(-c2ccccc2)n1C (stereo not given)

The results go on.
VDR inh	compound
7%	NC(=O)c1cc(S(=O)(=O)N2CCCC2)ccc1OCc1ccc(F)cc1
-22%	COc1ccc(OC)c(N(C)S(=O)(=O)c2ccc3c(c2)NC(=O)CC(=O)N3)c1
-27%	CC(=O)N1CCC(N(CCN2CCOCC2)C(=S)Nc2ccccc2C)CC1
-20%	CC(C)(C)OC(=O)[C@H](Cc1ccccc1)NC(=O)c1nc[nH]c1C(=O)NCC(=O)OCc1ccccc1
-8%	CC(C)CN(C(=O)c1ccc(Br)o1)C1CCS(=O)(=O)C1 (stereo not given)
-2%	N#C/C(C(N)=O)=C1/SC=C(c2ccccc2)N1c1ccccc1
3%	O=C(c1ccccc1F)N1C(=O)c2cccc3cccc1c23
-5%&14%	CCCCC(=O)Nc1nnc(S(=O)(=O)N2CCCCCC2)s1
16%	Cc1ccccc1C(=O)N1c2ncnn2C2(CCCCC2)[C@@H]2CCCC[C@@H]21
-5%	CCCn1c(/N=C/c2c[nH]c3ccccc23)nc2ccccc21
-9%	C=CCC(C(=O)OC)(C(=O)OC)c1ccc([N+](=O)[O-])cn1
-7%	Cc1cccc(-c2cc3c(nn2)-c2ccccc2C3=O)c1
?	COc1cc(NC(=O)/C=C/c2ccccc2)c(C(=O)O)cc1OC
11%	Cc1c(C(=O)O)sc2[nH]c(=O)n(Cc3ccccc3)c(=O)c12
5%	CCSc1nc(N)c2c3c(sc2n1)CCC3
-18%	COCCN(C(=O)CCC(=O)Nc1cc(C)on1)C(C(=O)NC(C)(C)C)c1cccc(OC)c1OC (stereo not given)
-18%	CN(Cc1cnn(Cc2ccccc2)c1)C(=O)CN=C1NS(=O)(=O)c2ccccc21
17%	O=C(Cc1cccc(NC(=O)C2CCCN(C(=O)C3CC3)C2)c1)Nc1cccc(C(=O)N2CCCCC2)c1 (stereo not given)
6%	O=C(CSc1nc(=O)n2cc(Cl)ccc2n1)Nc1ccc2c(c1)OCO2
25µM*	O=C(/C=C/c1ccc(Cl)cc1)c1cccnc1
12%	Cc1ccc(NC(=S)N2CCN(Cc3ccccc3)CC2)c(C)c1
8%	C[N+]1(CC2COC3(CCCCC3)O2)CCCCC1 (stereo not given)
15%	O=C(CCN1CCOCC1)Nc1cc(C(=O)Nc2ccc(Cl)cc2)ccc1N1CC2CC(C1)c1cccc(=O)n1C2 (stereo not given)
11%	Cc1nn(CC(=O)NCC2CCCO2)c(=O)c2cc3ccccc3n12 (stereo not given)
1%	O=C(c1ccc2c(c1)OCO2)N1CCN(C(=O)c2ccco2)CC1
-15%	O=C(Nc1cccc(Cl)c1)N(Cc1nc2ccccc2c(=O)[nH]1)C1CCCC1
2%	COc1ccc(-c2nn(-c3ccccc3)cc2C(=O)O)cc1
3%	COc1ccc(S(=O)(=O)N2CCN(CCC(=O)Nc3ccccc3F)CC2)cc1
-22%	Cc1ccc(C)c(S(=O)(=O)N2CCCCC2CCNC(=O)C(=O)NC2CCCC2)c1 (stereo not given)
-11%	O=C(Nc1ccccc1Br)c1c(F)cccc1Cl

With a hit mark in VDR inh, of those listed so far:
VDR inh	compound
79µM*	O=C1C=CC(=O)N1c1ccc2ccccc2c1
56µM*	COc1cc(/C=C2/C(=O)NN(c3ccc(Cl)c(Cl)c3)C2=O)cc([N+](=O)[O-])c1O
79µM*	COC(=O)N1C(=O)[C@](CC(C)C)(c2ccccc2)N1C(=O)OC
25µM*	O=C(/C=C/c1ccc(Cl)cc1)c1cccnc1

The results go on:
VDR inh	compound
-20%	COc1ccc(S(=O)(=O)n2ccc(-c3ccc4c(c3)CCC(C)(C)O4)n2)cc1
-15%	COc1ccc(-c2noc(CN(C)C(=O)c3ccco3)n2)cc1
1%	O=C(CCC(=O)Nc1cccc([N+](=O)[O-])c1)N/N=C/c1cccs1
-6%	N#Cc1ccsc1NC(=O)C1CC(=O)N(Cc2ccccc2)C1 (stereo not given)
-5%	Cc1ccc2nc(-c3ccc(C)s3)c(Nc3ccc4c(c3)OCCO4)n2c1
-1%	O=C(NCS(=O)(=O)c1ccccc1)c1ccccc1
11%	COc1ccc(N(CC(=O)NC2CCCC2)C(=O)CS(=O)CC(=O)Nc2ccc3c(c2)OCO3)cc1 (stereo not given)
1%	O=C(CSc1nnc(CCCN2C(=O)c3cccc4cccc(c34)C2=O)n1-c1ccccc1)NCCCN1CCOCC1
-2%	O=C(CN1C(=O)CNC1=O)Nc1cc(Cl)cc(Cl)c1
-1%	CC(CCc1ccccc1)NC(=O)c1nnc(Cc2ccc(Cl)cc2)o1 (stereo not given)
8%	Cc1ccc2[nH]c(CN3CCC(CO)(CC4CCCCO4)CC3)c(C)c2c1 (stereo not given)
-5%	O=C(CN1C(=O)NC2(CCCCC2)C1=O)NC1CCCc2ccccc21 (stereo not given)
-13%	O=C(Nc1ccc(C(F)(F)F)cc1)C1=NN(C2CCS(=O)(=O)C2)C(=O)CC1 (stereo not given)
3%	NC(=O)NC(=O)CSc1nnc(-c2ccc(Cl)cc2)n1CC1CCCO1 (stereo not given)
